2A StopGo – High Throughput Screening for Foot and Mouth Disease Virus Antivirals; human cells with a luciferase reporter of 2A StopGo recoding; control for the full effect not named in the record; 410,000 compounds, 1.2% hits; Potency, µM (doses to about 57.9 µM), without a hit: top-dose signal change, negative = less light; active = well fitted falling curve with a large enough effect; inconclusive = small, poorly fitted or top-dose-only effect; inactive = no such curve, though single readings can be large or run the other way; tested in HEK293T cells; further: on the % scale 0 is the no-effect control and ±100 the full control effect; nearly all actives have a fitted effect of over 45% in size; luciferase light after 4 h
RE007 growth inh – qHTS Assay for Inhibitors of the HIV-1 protein Vpr; S. pombe RE007 Vpr strain, BacTiter-Glo ATP luminescence, 24 h; control for the full effect not named in the record; Potency, µM (highest dose often 92.2 µM), without a hit: at the top dose activity change, negative = less growth; 360,000 compounds, 0.21% hits; AID 651644, 2012; active = well fitted falling curve with a large enough effect; inconclusive = small, poorly fitted or top-dose-only effect; inactive = no such curve, though single readings can be large or run the other way;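 further: on the % scale 0 is the no-effect control and ±100 the full control effect; nearly all actives have a fitted effect of over 50% in size; the assay follows cell death caused by Vpr and the record does not say whether a fall means rescue or toxicity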
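Fission yeast strain RE007, carrying one chromosomally integrated HIV-1 vpr copy, was seeded at OD 0.01 in PMG+AL medium with 23 nL pinned compound. After 24 h at 30 °C and 99% humidity, viability was read by BacTiter-Glo luminescence.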
Marburg entry inh – qHTS for inhibitors of binding or entry into cells for Marburg Virus | Marburg virus pseudotyped entry inhibition, cell reporter; control for the full effect not named in the record; about a third of the inactives were read at about 46 µM | Potency, µM (top dose mostly 37.8 µM), without a hit: at the highest dose activity change, negative = inhibition, most hits filed as inhibitors | 300,000 compounds, 1.8% hits; active = well fitted inhibition curve with a large enough effect; inconclusive = small, poorly fitted or top-dose-only effect, or effect the other way; inactive = flat fitted curve, though single readings scatter; tested in HEK293 cells; about a fifth of its hits are not listed in these tables; further: on the % scale 0 is the no-effect control and ±100 the full control effect; luciferase read-out
NS1 function inh – qHTS Assay for Inhibitors of Influenza NS1 Protein Function; S. cerevisiae slowed by influenza A NS1, growth recovery by OD600; Potency, µM (top dose mostly 46.1 µM), inactives show at the top dose activity, positive = more growth; 270,000 compounds, 0.4% hits; AID 2326, 2010; active means well fitted rising curve with a large enough effect; inconclusive means small, poorly fitted or top-dose-only effect; inactive means no such curve, though single readings can be large or run the other way; further: nearly all actives have a fitted effect of over 50% in size
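Growth recovery, yeast-based: influenza A NS1 expressed in S. cerevisiae causes slow growth, and suppressors are detected by OD600. The parent strain without NS1 is used as positive control.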
SARS PLpro yeast – qHTS of Yeast-based Assay for SARS-CoV PLP; S. cerevisiae expressing SARS-CoV PLpro, growth rescue; control for the full effect not named in the record; Potency, µM (series often up to 32.9 µM), for inactives: at the highest dose activity, positive = growth rescue; 330,000 compounds, 0.19% hits; active means well fitted rising curve with a large enough effect; inconclusive means small, poorly fitted or top-dose-only effect; inactive means no such curve, though single readings can be large or run the other way; further: 0% is about no effect; nearly all actives have a fitted effect of over 55% in size; growth read by luminescence after 48 h
LASV entry inh – qHTS for Inhibitors of binding or entry into cells for Lassa Virus; Lassa virus pseudotype entry inhibition, cell reporter; control for the full effect not named in the record; Potency, µM (doses to about 37.9 µM), for the others: top-dose activity change, negative = inhibition, hits mostly inhibitors; 300,000 compounds, 1.2% hits; active means well fitted inhibition curve with a large enough effect; inconclusive means small, poorly fitted or top-dose-only effect, or effect the other way; inactive means flat fitted curve, though single readings scatter; tested in HEK293 cells; further: on the % scale 0 is the no-effect control and ±100 the full control effect; nearly all actives have a fitted effect of over 50% in size; luciferase read-out
Cruzain inh Det – qHTS Assay for Promiscuous and Specific Inhibitors of Cruzain (with detergent); Cruzipain (Trypanosoma cruzi), P25779; purified cruzain, Z-FR-AMC fluorescence, 0.01% Triton; Potency, µM, without a hit: max response, negative = inhibition, usual class: inhibitors; 200,000 compounds, 0.43% hits;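 further: plate controls were neutral wells for no effect and buffer without enzyme for full effect; nearly all actives have a fitted effect of over 40% in size; top concentration of the series not given in the record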
Target sequence (P25779 123-467 limits assumed): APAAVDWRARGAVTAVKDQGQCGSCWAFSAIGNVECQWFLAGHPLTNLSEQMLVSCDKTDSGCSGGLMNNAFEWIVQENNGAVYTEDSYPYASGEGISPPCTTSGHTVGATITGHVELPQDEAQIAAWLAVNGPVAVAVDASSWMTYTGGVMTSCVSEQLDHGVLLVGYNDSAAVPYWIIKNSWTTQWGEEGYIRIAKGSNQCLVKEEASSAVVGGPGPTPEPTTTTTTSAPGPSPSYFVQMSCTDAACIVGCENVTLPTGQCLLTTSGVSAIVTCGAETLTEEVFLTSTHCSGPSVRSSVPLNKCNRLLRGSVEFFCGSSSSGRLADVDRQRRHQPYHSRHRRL
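15 min RT preincubation of 1.5 nM cruzain with compound, then 2 uM Z-FR-AMC added; kinetic AMC fluorescence, 60 s delta. Triton X-100 0.01%, pH 5.5.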
Cruzain inh noDet – qHTS Assay for Promiscuous and Specific Inhibitors of Cruzain (without detergent) | Cruzipain (Trypanosoma cruzi), P25779 | purified cruzain, Z-FR-AMC fluorescence, no detergent | Potency, µM, without a hit: max response, negative = inhibition, most hits filed as inhibitors | 200,000 compounds, 2.3% hits;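 further: plate controls were enzyme without inhibitor for no effect and buffer without enzyme for full effect; nearly all actives have a fitted effect of over 40% in size; top concentration of the series not given in the record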
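Detergent-free condition (0.00005% Triton X-100) in acetate buffer pH 5.5 with DTT. 1.5 nM enzyme and compound were pre-mixed 15 min, then 2 uM Z-FR-AMC substrate added; reaction progress from fluorescence change between first and third reads (60 s).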
The depositor's hits bear a star; [ ] = remark or other dose. Unless noted, the call rests on the fitted dose curve; in most records, active means well fitted curve in the direction sought with a large enough effect; inconclusive means small, poorly fitted or top-dose-only effect, or another doubt; inactive means no such curve, though single readings can be large; an effect the other way counts as inactive or inconclusive. Potency means the concentration at half of the fitted maximal effect.

How did CSCCC(NC(=O)COc1ccccc1)C(=O)OCc1ccc(Cl)cc1 (stereo unspecified) do in these assays?
2A StopGo: -8.3%; RE007 growth inh: inconclusive; Marburg entry inh: inconclusive; LASV entry inh: 3.2%

What do the screens show for `CCOC(=O)c1sc(NC(=O)c2ccco2)nc1-c1ccccc1`?
2A StopGo: -1.9%; RE007 growth inh: 16.6%; NS1 function inh: 9.8%; SARS PLpro yeast: 0.2%; Cruzain inh Det: -3.3%; Cruzain inh noDet: -18.4%

How did O=C1[C@@H]2[C@H]3CC[C@H](C3)[C@@H]2C(=O)N1O do in these assays?
2A StopGo: -1.6%; RE007 growth inh: 0.9%; Marburg entry inh: -14.4%[46.1 µM]; NS1 function inh: 0.3%; SARS PLpro yeast: -0.2%; LASV entry inh: 9.8%

What do the screens show for `CCOc1ccc(C(=O)Nc2cccc(C(=O)O)c2)cc1Cl`?
2A StopGo: 8.91µM*; RE007 growth inh: -12.8%; Marburg entry inh: inconclusive; SARS PLpro yeast: 0.2%; LASV entry inh: inconclusive

What do the screens show for `CCn1c(SCc2ccccc2F)nc(=O)c2c(C(=O)OC)cc(C3CC3)nc21`?
2A StopGo: -28.9%; LASV entry inh: inconclusive; Cruzain inh Det: -6.7%; Cruzain inh noDet: -10.0%

What do the screens show for `O=C(CN1C(=O)COc2ccc(S(=O)(=O)N3CCOCC3)cc21)N1CCN(c2ccccc2F)CC1`?
2A StopGo: 3.0%; Marburg entry inh: 2.9%[46.1 µM]; LASV entry inh: -6.2%[46.1 µM]; Cruzain inh Det: -1.1%; Cruzain inh noDet: 17.7%

What do the screens show for `CCOC(=O)c1oc2cc(O)c(CC)cc2c(=O)c1-c1ccc2c(c1)OCCO2`?
2A StopGo: -18.6%; RE007 growth inh: -12.4%; NS1 function inh: -22.9%; SARS PLpro yeast: -0.7%; Cruzain inh Det: -4.5%; Cruzain inh noDet: -2.5%

Results for COc1ccc(-n2ncc(C(=O)NCc3ccc4c(c3)OCO4)c2C2CCN(C(=O)OC(C)(C)C)CC2)cc1 ?
2A StopGo: 6.7%; LASV entry inh: inconclusive; Cruzain inh Det: -8.7%; Cruzain inh noDet: 7.7%

Results for CCOC(=O)c1c(NC(=O)c2ccc(S(=O)(=O)N3CCC(C)CC3)cc2)sc2c1CCN(C)C2 ?
2A StopGo: -17.8%; LASV entry inh: 0.3%[46.1 µM]; Cruzain inh Det: -0.1%; Cruzain inh noDet: 27.5%

Results for Cc1cc(C)cc(NC(=O)N2CCN(C)c3ncccc32)c1 ?
2A StopGo: 4.1%; Marburg entry inh: 4.6%[46.1 µM]; LASV entry inh: 5.0%[46.1 µM]; Cruzain inh Det: 0.5%; Cruzain inh noDet: -9.4%

What do the screens show for `O=c1[nH]c(=O)n(Cc2ccc(F)cc2)c(O)c1C=NCc1cccnc1`?
2A StopGo: -8.4%; RE007 growth inh: 9.3%; Marburg entry inh: -18.8%; NS1 function inh: -5.7%; SARS PLpro yeast: 8.6%; LASV entry inh: -17.9%; Cruzain inh Det: -3.5%; Cruzain inh noDet: 7.0%

Results for Cc1ccc2sc(NC(=O)c3cccc(N4C(=O)CCC4=O)c3)nc2c1C ?
2A StopGo: 20.2%; RE007 growth inh: 2.3%; Marburg entry inh: 17.2%; NS1 function inh: -4.6%; SARS PLpro yeast: 19.9%; LASV entry inh: 4.5%

What do the screens show for `COc1ccc(OC)c(CC(=O)N(C)C2CCCN(Cc3ccccc3F)C2)c1` (stereo unspecified)?
2A StopGo: -9.3%; RE007 growth inh: 8.8%; NS1 function inh: 25.1%; SARS PLpro yeast: 4.7%

Results for Cc1cc(C)cc(NC(=S)N2CCN(S(=O)(=O)c3ccccc3)CC2)c1 ?
2A StopGo: -8.8%; RE007 growth inh: 9.7%; Marburg entry inh: inconclusive; NS1 function inh: 11.7%; SARS PLpro yeast: 3.3%; LASV entry inh: inconclusive

Results for Cc1ccc(C)c(NC(=O)NNC(=O)c2ccc3ccccc3c2O)c1 ?
2A StopGo: 25.1%; RE007 growth inh: -0.7%; Marburg entry inh: -6.0%[46.1 µM]; NS1 function inh: -7.0%; SARS PLpro yeast: 1.4%; LASV entry inh: -1.6%[46.1 µM]

Results for O=C(CO/N=C/c1ccccc1OC(F)F)NCc1cccs1 ?
2A StopGo: 27.0%; Marburg entry inh: 21.0%; NS1 function inh: -17.0%; SARS PLpro yeast: -15.9%; LASV entry inh: inconclusive; Cruzain inh Det: -4.5%; Cruzain inh noDet: 2.1%

Results for CC(C)CNC(=O)c1cnn2c(C(F)(F)F)cc(C(F)(F)F)nc12 ?
2A StopGo: -14.3%; RE007 growth inh: -1.0%; Marburg entry inh: inconclusive; NS1 function inh: 1.9%; SARS PLpro yeast: -0.8%; LASV entry inh: 8.3%

How did CC(C)CN(C(=O)COC(=O)C1c2ccccc2Oc2ccccc21)C1CCS(=O)(=O)C1 (stereo unspecified) do in these assays?
2A StopGo: -12.8%; RE007 growth inh: 5.1%; Marburg entry inh: -0.4%; NS1 function inh: -14.9%; SARS PLpro yeast: 17.7%; LASV entry inh: inconclusive; Cruzain inh Det: -5.9%; Cruzain inh noDet: inconclusive

How did Cc1cccc(N(C)C(=O)Cn2cnc3nc4c(cc3c2=O)CCCC4)c1 do in these assays?
2A StopGo: -26.1%; LASV entry inh: 4.0%[46.1 µM]; Cruzain inh Det: -2.3%; Cruzain inh noDet: -2.5%

How did Cc1nn(C(=O)CNS(=O)(=O)c2ccccc2)c(C)c1Sc1ccc(Cl)cc1 do in these assays?
2A StopGo: 4.0%; RE007 growth inh: -48.5%; Marburg entry inh: -17.1%; NS1 function inh: -40.8%; SARS PLpro yeast: -9.4%; LASV entry inh: -10.4%; Cruzain inh Det: -1.8%; Cruzain inh noDet: -1.5%

What do the screens show for `COc1ccc(CC(=O)OCC(=O)NCc2ccco2)cc1`?
2A StopGo: -17.1%; RE007 growth inh: 15.9%; Marburg entry inh: 16.4%[46.1 µM]; SARS PLpro yeast: 3.9%; LASV entry inh: 7.1%

What do the screens show for `O=C(CNS(=O)(=O)c1ccc(Br)cc1)N1CCN(Cc2ccccc2)CC1`?
2A StopGo: -10.3%; RE007 growth inh: -14.2%; Marburg entry inh: -1.7%; NS1 function inh: 5.6%; SARS PLpro yeast: inconclusive; LASV entry inh: -6.3%

How did COc1ccc(-c2noc(CCC(=O)NCCc3ccccc3)n2)cc1OC do in these assays?
2A StopGo: 0.0%; RE007 growth inh: -3.9%; NS1 function inh: -4.6%; SARS PLpro yeast: -0.4%

Results for CC(C)[C@H](NC(=O)c1c(F)cccc1F)C(=O)OCC(=O)NC(=O)NC1CCCC1 ?
2A StopGo: -11.9%; RE007 growth inh: -0.7%; Marburg entry inh: 25.3%; NS1 function inh: -9.0%; SARS PLpro yeast: -0.1%; LASV entry inh: 1.2%

What do the screens show for `CCCCn1c(SCC(=O)NCC2CCCO2)nc2ccc(N3CCOCC3)cc2c1=O` (stereo unspecified)?
2A StopGo: -7.7%; RE007 growth inh: -4.0%; Marburg entry inh: 2.2%; NS1 function inh: -3.0%; SARS PLpro yeast: 1.5%; LASV entry inh: -16.0%; Cruzain inh Det: -10.0%; Cruzain inh noDet: 24.0%

How did CC12CCC(=O)C=C1C=CC1C2CCC2(C)C(O)CCC12 (stereo unspecified) do in these assays?
2A StopGo: -24.5%; RE007 growth inh: 1.1%; Marburg entry inh: inconclusive; LASV entry inh: -6.6%[46.1 µM]

How did COC(=O)CC1C(=O)NCCN1C(=O)c1ccccc1 (stereo unspecified) do in these assays?
2A StopGo: -4.4%; RE007 growth inh: 13.1%; Marburg entry inh: 22.6%; NS1 function inh: 1.3%; SARS PLpro yeast: -4.2%; LASV entry inh: inconclusive; Cruzain inh Det: -5.6%; Cruzain inh noDet: 12.4%

What do the screens show for `COc1cc2c(cc1OC)CN(C(=S)Nc1c(C)cccc1C)CC2`?
2A StopGo: -29.8%; RE007 growth inh: -1.8%; Marburg entry inh: 29.0%; NS1 function inh: -2.3%; SARS PLpro yeast: 6.6%; LASV entry inh: 4.8%; Cruzain inh Det: -0.9%; Cruzain inh noDet: 2.2%

How did COc1ccccc1NC(C)C(=O)N/N=C/c1cccs1 (stereo unspecified) do in these assays?
2A StopGo: -2.4%; RE007 growth inh: 37.0%; Marburg entry inh: -18.0%[46.1 µM]; NS1 function inh: -3.2%; SARS PLpro yeast: -4.4%; LASV entry inh: inconclusive

What do the screens show for `CC(C)c1ccc(S(=O)(=O)c2nnn3c2nc(N2CCCCC2)c2ccccc23)cc1`?
2A StopGo: -16.5%; RE007 growth inh: 3.7%; Marburg entry inh: 8.5%; NS1 function inh: 2.7%; SARS PLpro yeast: -13.7%; LASV entry inh: 12.1%; Cruzain inh Det: -5.2%; Cruzain inh noDet: inconclusive

How did CCCCC(CC)C1OCC(CN2CCCCC2)O1 (stereo unspecified) do in these assays?
2A StopGo: -11.5%; RE007 growth inh: 28.4%; NS1 function inh: 4.5%; SARS PLpro yeast: -0.1%

Results for Cc1c(NC(=O)COC(=O)C23CC4CC(CC(O)(C4)C2)C3)c(=O)n(-c2ccccc2)n1C ?
2A StopGo: 2.0%; RE007 growth inh: 18.5%; Marburg entry inh: -3.1%[46.1 µM]; NS1 function inh: 4.3%; SARS PLpro yeast: -0.3%

What do the screens show for `Cn1c(=O)c2[nH]c(CCCCCc3nc4ccccc4[nH]3)nc2n(C)c1=O`?
2A StopGo: -7.7%; RE007 growth inh: -9.0%; Marburg entry inh: inconclusive; LASV entry inh: 2.4%

How did Cc1c(Cl)cccc1NC(=O)COc1ccc(S(=O)(=O)N2CCOCC2)cc1 do in these assays?
2A StopGo: 19.6%; RE007 growth inh: 2.0%; Marburg entry inh: 0.7%; NS1 function inh: -0.2%; SARS PLpro yeast: 8.6%; LASV entry inh: -19.5%; Cruzain inh Det: 0.1%; Cruzain inh noDet: 5.2%

Results for COc1ccc(N2CCN(Cc3nc4ccccc4c(=O)[nH]3)CC2)cc1 ?
2A StopGo: 5.4%; RE007 growth inh: 10.8%; Marburg entry inh: -3.3%; NS1 function inh: 0.4%; SARS PLpro yeast: 1.4%; LASV entry inh: 3.7%; Cruzain inh Det: -9.7%; Cruzain inh noDet: 1.1%

Screening data (PubChem BioAssay)
